Assay outcomes from PubChem.
HIV Env fusion – inhibitors of HIV Env-mediated cell fusion; HeLa-JRFL Env/CEM21 cell fusion, luciferase; inhibition, % at 12.3 µM; 1.1% of 360,000 active;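 active means mean replicate inhibition score of at least 50 and every replicate individually at or above 50; inconclusive means only one of the two criteria met; inactive means mean below 50 and not all replicates reaching 50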;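 further: 0% = plate neutral controls and 100% = maraviroc near 300 nM; one replicate is shown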
UUG fidelity – modulators of start codon recognition fidelity in yeast | S. cerevisiae UUG-firefly luciferase reporter, luminescence/redox ratio | activity score, % at 18.7 µM | 0.13% of 350,000 active | AID 602363;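 active means replicate mean at a twofold rise or more, about +100% in these data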;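 further: firefly luciferase made from a UUG start codon reports start codon fidelity; reporter light over untreated wells divided by growth signal over untreated wells; some hits fall short of that in this replicate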
An asterisk follows results filed as active; u = inconclusive; [ ] = another dose, or the depositor's remark.

SMILES	HIV Env fusion	UUG fidelity
C[C@@H]1CN([C@@H](C)CO)C(=O)c2cc(NC(=O)Nc3cccc4ccccc34)ccc2O[C@@H]1CN(C)C(=O)NC1CCCCC1	-23[16.7 µM]	-8
C[C@@H]1CCCCO[C@H](CN(C)C(=O)Nc2cccc3ccccc23)[C@@H](C)CN([C@@H](C)CO)C(=O)c2cc(NC(=O)Nc3ccc(C(F)(F)F)cc3)ccc2O1	-11[16.7 µM]	-15
Cc1ccc(-c2ccc3c(c2)O[C@H](CN(C)C)[C@H](C)CN([C@H](C)CO)S3(=O)=O)cc1	11[16.7 µM]	13
Cc1noc(C)c1NC(=O)N[C@H]1CC[C@@H](CCNC(=O)C2CCC2)O[C@H]1CO	14[16.7 µM]	4
C[C@H]1CCCCO[C@@H](CN(C)Cc2ccc(C(=O)O)cc2)[C@@H](C)CN([C@@H](C)CO)C(=O)c2cc(NS(=O)(=O)c3ccc(Cl)cc3)ccc2O1	-1[16.7 µM]	7
C[C@H]1CN([C@@H](C)CO)C(=O)Cc2cc(NS(=O)(=O)c3cn(C)cn3)ccc2O[C@@H]1CN(C)S(=O)(=O)c1ccc(Cl)cc1	-14[16.7 µM]	0
C[C@@H]1CN([C@H](C)CO)C(=O)c2cc(-c3ccc(C#N)cc3)cnc2O[C@H]1CN(C)C(=O)Nc1ccccc1	10[16.7 µM]	-8
Cc1noc(C)c1NC(=O)Nc1cccc2c1O[C@H](CN(C)C(=O)Nc1ccc3c(c1)OCO3)[C@@H](C)CN([C@@H](C)CO)C2=O	-3[16.7 µM]	-8
C[C@@H]1CN([C@@H](C)CO)S(=O)(=O)c2ccc(-c3ccc(C(=O)N(C)C)cc3)cc2O[C@@H]1CN(C)C(=O)C1CCOCC1	3[16.7 µM]	19
Cc1cccc(S(=O)(=O)N[C@@H]2CC[C@H](CCn3cc(-c4ccccn4)nn3)O[C@H]2CO)c1	9[16.7 µM]	11
C[C@H]1CN([C@@H](C)CO)C(=O)Cc2cc(NC(=O)C3CC3)ccc2O[C@H]1CN(C)C(=O)Nc1ccc(C(F)(F)F)cc1	4[16.7 µM]	5
C[C@H]1CN([C@@H](C)CO)C(=O)c2cccc(NS(=O)(=O)c3ccc(Cl)cc3)c2O[C@@H]1CN(C)Cc1ccc(-c2ccccc2)cc1	-14[16.7 µM]	1
C[C@@H]1CCCCO[C@H](CN(C)C)[C@H](C)CN([C@@H](C)CO)C(=O)c2cc(NC(=O)CCCN(C)C)ccc2O1	17[16.7 µM]	11
C/C=C/c1ccc2c(c1)O[C@@H](CN(C)C(=O)c1cnccn1)[C@H](C)CN([C@@H](C)CO)S2(=O)=O	-10[16.7 µM]	7
COc1ccc(OC(=O)N(C)C[C@H]2OCc3cn(nn3)CCCC(=O)N([C@@H](C)CO)C[C@@H]2C)cc1	7[16.7 µM]	3

As entered above:
UUG fidelity with `COc1ccc(OC(=O)N(C)C[C@H]2OCc3cn(nn3)CCCC(=O)N([C@@H](C)CO)C[C@@H]2C)cc1` stands at 3
UUG fidelity with `Cc1cccc(S(=O)(=O)N[C@@H]2CC[C@H](CCn3cc(-c4ccccn4)nn3)O[C@H]2CO)c1` stands at 11
UUG fidelity with `C[C@@H]1CN([C@@H](C)CO)C(=O)c2cc(NC(=O)Nc3cccc4ccccc34)ccc2O[C@@H]1CN(C)C(=O)NC1CCCCC1` stands at -8
UUG fidelity with `C[C@H]1CN([C@@H](C)CO)C(=O)Cc2cc(NS(=O)(=O)c3cn(C)cn3)ccc2O[C@@H]1CN(C)S(=O)(=O)c1ccc(Cl)cc1` stands at 0
HIV Env fusion with `C[C@@H]1CCCCO[C@H](CN(C)C(=O)Nc2cccc3ccccc23)[C@@H](C)CN([C@@H](C)CO)C(=O)c2cc(NC(=O)Nc3ccc(C(F)(F)F)cc3)ccc2O1` stands at -11[16.7 µM]
HIV Env fusion with `C[C@@H]1CN([C@H](C)CO)C(=O)c2cc(-c3ccc(C#N)cc3)cnc2O[C@H]1CN(C)C(=O)Nc1ccccc1` stands at 10[16.7 µM]
HIV Env fusion with `Cc1noc(C)c1NC(=O)Nc1cccc2c1O[C@H](CN(C)C(=O)Nc1ccc3c(c1)OCO3)[C@@H](C)CN([C@@H](C)CO)C2=O` stands at -3[16.7 µM]

Additional structures.
SMILES	HIV Env fusion	UUG fidelity
O=C(NCC[C@H]1CC[C@H](NS(=O)(=O)c2cccc(F)c2)[C@H](CO)O1)C1CCCC1	9[16.7 µM]	0
C[C@@H]1CCCCO[C@H](CN(C)C(=O)Cc2ccccc2)[C@H](C)CN([C@@H](C)CO)C(=O)c2cc(NC(=O)Nc3ccccc3)ccc2O1	-23[16.7 µM]	-7
C[C@H](CO)N1C[C@H](C)[C@@H](CN(C)S(=O)(=O)c2cn(C)cn2)Oc2ccc(NC(=O)CCCCCC(=O)Nc3ccccc3N)cc2CC1=O	-15[16.7 µM]	7
O=C(C[C@@H]1C[C@@H]2c3cc(NC(=O)Cc4ccncc4)ccc3O[C@@H]2[C@@H](CO)O1)NCc1ccc2c(c1)OCO2	2[16.7 µM]	-12
COc1ccc(NC(=O)Nc2cccc3c2O[C@H](CN(C)C(=O)Nc2ccc(OC)cc2)[C@H](C)CN([C@H](C)CO)C3=O)cc1	-1[16.7 µM]	17
C[C@@H]1CCCCO[C@H](CN(C)C(=O)Nc2ccccc2)[C@H](C)CN([C@H](C)CO)C(=O)c2cc(NS(C)(=O)=O)ccc2O1	-13[16.7 µM]	18
CN(C)CC(=O)Nc1ccc2c(c1)[C@@H]1C[C@@H](CC(=O)NCCN3CCCCC3)O[C@@H](CO)[C@@H]1O2	-16[16.7 µM]	1
C[C@@H]1CN([C@@H](C)CO)S(=O)(=O)c2ccc(Br)cc2O[C@@H]1CN(C)Cc1ccccc1	u	-7
C[C@@H]1CN([C@@H](C)CO)C(=O)Cc2cc(NC(=O)Nc3ccc4c(c3)OCO4)ccc2O[C@@H]1CN(C)S(=O)(=O)c1cccs1	3[16.7 µM]	-8
Cc1noc(C)c1S(=O)(=O)Nc1ccc2c(c1)C(=O)N([C@H](C)CO)C[C@H](C)[C@@H](CN(C)S(=O)(=O)c1cccs1)OCCCC[C@@H](C)O2	-19[16.7 µM]	-9
C[C@@H]1CN([C@H](C)CO)S(=O)(=O)c2ccc(C#Cc3ccccc3)cc2O[C@@H]1CN(C)S(=O)(=O)c1cn(C)cn1	-1[16.7 µM]	3
O=C(C[C@H]1C[C@@H]2c3cc(NC(=O)Nc4ccc(C(F)(F)F)cc4)ccc3O[C@@H]2[C@@H](CO)O1)NCC1CC1	10[16.7 µM]	7
Cc1noc(C)c1NC(=O)N[C@H]1CC[C@@H](CCNC(=O)C2CCC2)O[C@@H]1CO	-12[16.7 µM]	-9
COC(=O)C[C@H]1C=C[C@@H](NC(=O)c2ccccc2)[C@@H](CO)O1	-2[16.7 µM]	-7
C[C@@H]1CN([C@H](C)CO)C(=O)c2cc(C#CCc3ccccc3)cnc2O[C@@H]1CN(C)C(=O)Cc1cccnc1	-18[16.7 µM]	16
C[C@H](CO)N1C[C@H](C)[C@H](CN(C)S(=O)(=O)c2ccc(F)cc2)OCCCC[C@H](C)Oc2ccc(NC(=O)Nc3ccc(F)cc3)cc2C1=O	-53[16.7 µM]	-15
COc1ccc(NC(=O)Nc2cccc3c2O[C@H](CN(C)C(=O)Nc2ccccc2)[C@H](C)CN([C@H](C)CO)C3=O)cc1	2[16.7 µM]	13
C[C@H](CO)N1C[C@H](C)[C@H](CN(C)C(=O)Nc2ccc(C(F)(F)F)cc2)Oc2ncc(C3=CCCC3)cc2C1=O	-4[16.7 µM]	-7
COC(=O)c1c(CC[C@@H](CO)NC(=O)N[C@H](Cc2ccccc2)Cn2cc(-c3ccccn3)nn2)oc(C(C)=O)c1C(=O)OC	-6[16.7 µM]	-25
CC(C)CC#Cc1ccc2c(c1)O[C@H](CN(C)C(=O)CC1CC1)[C@@H](C)CN([C@H](C)CO)S2(=O)=O	1[16.7 µM]	21
C[C@@H]1CN([C@@H](C)CO)C(=O)c2cc(NC(=O)Nc3ccccc3)ccc2O[C@@H]1CN(C)Cc1ccc(-c2ccccc2)cc1	13[16.7 µM]	6
CO[C@H]1CN(C)C(=O)c2ccc(NS(=O)(=O)CC(F)(F)F)cc2OC[C@H](C)N(C(=O)c2ccc3c(c2)OCO3)C[C@@H]1C	-2[16.7 µM]	19
COc1cccc(-c2ccc3c(c2)O[C@H](CN(C)C(=O)c2ccccc2F)[C@@H](C)CN([C@H](C)CO)S3(=O)=O)c1	2[16.7 µM]	0
Cc1noc(C)c1S(=O)(=O)N(C)C[C@@H]1Oc2ccc(NC(=O)CCC(F)(F)F)cc2CC(=O)N([C@@H](C)CO)C[C@@H]1C	8[16.7 µM]	-3
CC(C)CC#Cc1cnc2c(c1)C(=O)N([C@@H](C)CO)C[C@@H](C)[C@H](CN(C)Cc1cccc(F)c1)O2	25[16.7 µM]	20
C[C@@H]1CN([C@H](C)CO)C(=O)c2cc(C#Cc3cccc(F)c3)cnc2O[C@H]1CN(C)C(=O)C1CC1	-2[16.7 µM]	12
COc1ccccc1-c1cnc2c(c1)C(=O)N([C@H](C)CO)C[C@H](C)[C@@H](CN(C)C)O2	-33[16.7 µM]	1
Cc1ccccc1-c1ccc2c(c1)O[C@H](CN(C)C(=O)Nc1ccccc1)[C@H](C)CN([C@@H](C)CO)S2(=O)=O	-116[16.7 µM]	-7
C[C@H](CO)N1C[C@H](C)[C@@H](CN(C)C(=O)Nc2ccccc2)Oc2ccc(NS(=O)(=O)c3ccc(Cl)cc3)cc2C1=O	9[16.7 µM]	-4
Cc1ccc(S(=O)(=O)N(C)C[C@@H]2OCCCC[C@H](C)Oc3ccc(NS(=O)(=O)c4c(C)noc4C)cc3C(=O)N([C@H](C)CO)C[C@H]2C)cc1	-36[16.7 µM]	-11
COCC(=O)N(C)C[C@H]1Oc2ncc(-c3cccc(OC)c3)cc2C(=O)N([C@@H](C)CO)C[C@H]1C	5[16.7 µM]	10
C/C=C/c1ccc2c(c1)O[C@H](CN(C)C(=O)Nc1ccc(OC)cc1)[C@H](C)CN([C@H](C)CO)S2(=O)=O	-6[16.7 µM]	0
C[C@@H]1CN([C@H](C)CO)C(=O)c2cc(NS(=O)(=O)c3ccc(Cl)cc3)ccc2O[C@H]1CN(C)C(=O)Nc1ccccc1	11[16.7 µM]	-7
C[C@H]1CN([C@@H](C)CO)C(=O)c2cc(-c3cncnc3)cnc2O[C@H]1CN(C)CC1CCOCC1	21[16.7 µM]	-7
C[C@H](CO)N1C[C@H](C)[C@H](CN(C)C(=O)c2cnccn2)Oc2ncc(-c3cccc(C#N)c3)cc2C1=O	-15[16.7 µM]	9
Cn1cnc(S(=O)(=O)N[C@@H]2C=C[C@@H](CC(=O)Nc3ccccc3)O[C@H]2CO)c1	3[16.7 µM]	-1
C/C=C/c1ccc2c(c1)O[C@H](CN(C)C(=O)NCCC)[C@H](C)CN([C@@H](C)CO)S2(=O)=O	36[16.7 µM]	12
CC(C)NC(=O)Nc1ccc2c(c1)CC(=O)N([C@H](C)CO)C[C@@H](C)[C@@H](CN(C)C(=O)Nc1ccccc1)O2	4[16.7 µM]	36
COc1cccc(S(=O)(=O)N(C)C[C@@H]2Oc3ncc(C#CCC(C)C)cc3C(=O)N([C@H](C)CO)C[C@H]2C)c1	9[16.7 µM]	13
C[C@@H]1CN([C@H](C)CO)C(=O)c2cccc(NC(=O)NC3CCCCC3)c2O[C@H]1CN(C)C(=O)Nc1ccc(C(F)(F)F)cc1	7[16.7 µM]	-5
CCNC(=O)C[C@@H]1CC[C@H](NC(=O)C2CCOCC2)[C@@H](CO)O1	17[16.7 µM]	-12
Cc1ccc(-c2ccc3c(c2)O[C@@H](CN(C)C(=O)C2CCC2)[C@@H](C)CN([C@@H](C)CO)S3(=O)=O)cc1	14[16.7 µM]	9
O=S(=O)(NCC[C@@H]1CC[C@@H](NS(=O)(=O)c2ccccc2Cl)[C@H](CO)O1)c1ccc(F)cc1	-4[16.7 µM]	9
CN1C(=O)c2cc(NC(=O)c3cscn3)ccc2OC[C@H]2O[C@@H](CC(=O)N3CCOCC3)CC[C@@H]21	-3[16.7 µM]	-8
CCCNC(=O)C[C@H]1C[C@@H]2c3cc(NC(=O)c4cccnc4)ccc3O[C@@H]2[C@H](CO)O1	-2[16.7 µM]	-13

Copied from the results shown (3 entries):
SMILES	HIV Env fusion	UUG fidelity
O=S(=O)(NCC[C@@H]1CC[C@@H](NS(=O)(=O)c2ccccc2Cl)[C@H](CO)O1)c1ccc(F)cc1	-4[16.7 µM]	9
CN1C(=O)c2cc(NC(=O)c3cscn3)ccc2OC[C@H]2O[C@@H](CC(=O)N3CCOCC3)CC[C@@H]21	-3[16.7 µM]	-8
CCCNC(=O)C[C@H]1C[C@@H]2c3cc(NC(=O)c4cccnc4)ccc3O[C@@H]2[C@H](CO)O1	-2[16.7 µM]	-13

(continued)
SMILES	HIV Env fusion	UUG fidelity
C[C@H](CO)N1C[C@H](C)[C@H](CN(C)S(=O)(=O)c2ccc(F)cc2)Oc2ccc(NC(=O)CCC(F)(F)F)cc2CC1=O	19[16.7 µM]	0
C[C@H]1CCCCO[C@H](CN(C)C(=O)Nc2ccc3c(c2)OCO3)[C@@H](C)CN([C@@H](C)CO)C(=O)c2cc(NC(=O)C3CCCCC3)ccc2O1	-5[16.7 µM]	1
C/C=C/c1cnc2c(c1)C(=O)N([C@H](C)CO)C[C@@H](C)[C@H](CN(C)C(=O)Nc1c(C)noc1C)O2	-3[16.7 µM]	-3
C[C@@H]1CN([C@H](C)CO)C(=O)c2cc(NC(=O)Cc3ccccc3)ccc2O[C@@H](C)CCCCO[C@H]1CN(C)Cc1ccc(Cl)c(Cl)c1	26[16.7 µM]	8
CCC(=O)N[C@H]1CC[C@H](CCn2cc(CN(C)C)nn2)O[C@H]1CO	4[16.7 µM]	5
CCOC(=O)C1=CC[C@@H](c2ccccc2)[C@@]12CC/C(=C\c1ccccc1)C2=O	11[16.7 µM]	8
NCC[C@@H]1CC[C@H](NC(=O)NC2CCCCC2)[C@H](CO)O1	-4[16.7 µM]	2

These rows are one share of the data; the hit share may differ from the screen's.
